Screens (PubChem BioAssay)
TRPML1 agonist: agonists of human TRPML1 channel. Q9GZU1. 410,000 tested, 0.12% active. TRPML1-expressing cells, Ca2+ dye fluorescence, FDSS; host cell line not named in the record; reference of the full effect not given here. activation, % (test concentration not listed); in the data active = activation above about 50%; inconclusive = about 30% to 50%; inactive = below about 30%; also: 0% is about no effect; the text of the record puts the active cut at 80%
Target sequence (Q9GZU1 whole entry, looked up): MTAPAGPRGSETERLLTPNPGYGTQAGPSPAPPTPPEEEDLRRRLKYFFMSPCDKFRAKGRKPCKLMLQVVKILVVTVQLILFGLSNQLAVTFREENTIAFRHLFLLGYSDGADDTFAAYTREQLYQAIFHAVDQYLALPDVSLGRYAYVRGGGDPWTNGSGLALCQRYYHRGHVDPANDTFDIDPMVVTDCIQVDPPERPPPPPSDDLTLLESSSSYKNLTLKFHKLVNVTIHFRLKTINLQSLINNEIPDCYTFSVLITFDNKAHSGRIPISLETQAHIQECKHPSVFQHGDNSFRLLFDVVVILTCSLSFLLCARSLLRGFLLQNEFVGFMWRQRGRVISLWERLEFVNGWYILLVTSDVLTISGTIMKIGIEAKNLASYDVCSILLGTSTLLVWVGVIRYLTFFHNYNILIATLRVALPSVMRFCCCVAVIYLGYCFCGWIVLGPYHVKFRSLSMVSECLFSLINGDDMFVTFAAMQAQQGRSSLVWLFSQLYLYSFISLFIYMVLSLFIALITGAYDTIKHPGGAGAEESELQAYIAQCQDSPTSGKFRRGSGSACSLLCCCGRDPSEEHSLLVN
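Tet-induced TRPML1-DL cells, 1,500 per well, cultured overnight, were loaded with a no-wash Ca2+ dye for 45–90 min. Calcium fluorescence was recorded on the FDSS for 110 s after compound addition, before the EC80 agonist (4 uM 54-4) was added.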
D2 ag: activates the human D2 dopamine receptor | P14416 | DiscoveRx PathHunter D2 beta-arrestin, luminescence, 90 min; 100% = 57 uM dopamine signal | activation, % (concentration not given with the values) | 360,000 tested, 0.084% active; in the data active = activation above about 40%; inconclusive = about 15% to 40%; inactive = below about 15%; also: compound concentration not given in the record; the text of the record calls up to 30% inactive
Target sequence (P14416 whole entry, looked up): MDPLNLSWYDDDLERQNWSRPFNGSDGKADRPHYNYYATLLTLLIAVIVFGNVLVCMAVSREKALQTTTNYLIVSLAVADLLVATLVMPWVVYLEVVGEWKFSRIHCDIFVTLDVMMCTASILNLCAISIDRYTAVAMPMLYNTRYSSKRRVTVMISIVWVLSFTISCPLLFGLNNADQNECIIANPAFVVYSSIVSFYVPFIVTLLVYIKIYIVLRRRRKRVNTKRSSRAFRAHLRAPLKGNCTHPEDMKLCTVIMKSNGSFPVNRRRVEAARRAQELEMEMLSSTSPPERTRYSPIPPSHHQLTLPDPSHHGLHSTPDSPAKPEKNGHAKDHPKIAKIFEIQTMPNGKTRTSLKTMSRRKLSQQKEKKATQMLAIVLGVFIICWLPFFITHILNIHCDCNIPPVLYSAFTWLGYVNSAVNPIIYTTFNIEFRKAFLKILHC
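DiscoveRx PathHunter D2 beta-arrestin cells (2,100/well) attached overnight, then compound-stimulated 90 min at 37 C in HBSS/10 mM HEPES/0.1% Tween-20 buffer; beta-galactosidase complementation read by luminescence after 1 h at ambient temperature. Dopamine 57 uM final (EC100) as control.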
Six1-Eya2 inh: blocks human Six1 binding to Eya2; 360,000 tested, 0.56% active; Q15475+O00167; AlphaScreen GST-Six1/His-Eya2 binding, biochemical; active compounds read low; control for the full effect not named in the record; activity change, % (test concentration not listed); in the data active = activity change below about -65%; inconclusive = about -30% to -65%; inactive = above about -30%; also: % is scaled to controls: 0 for no effect and ±100 for the full control effect
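Six1/Eya2 binding was read as AlphaScreen signal after compounds were pinned into GST-Six1 plus His-tagged Eya2 (5X stock 250/500 nM) in pH 8.0 Tris/NaCl/TCEP buffer, beads added, then incubated 1 h, 37 C, dark.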
D2 potentiator: potentiates the human D2 dopamine receptor allosterically; P14416; DiscoveRx D2 beta-arrestin cells, luminescence, 90 min; 100% = 57 uM dopamine signal; potentiation, % (concentration not given with the values); 360,000 tested, 0.23% active; AID 624464; active = potentiation of 50% or more; inconclusive = 30% to 50%; inactive = 30% or less;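 also: compound concentration not given in the record; tested on top of an EC20 dose of dopamine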
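PathHunter D2 cells, attached overnight at 37 deg C, received compound in DMSO plus dopamine at EC20 (50 nM final) for 90 min at 37 deg C. Beta-arrestin recruitment was read as luminescence after 1 h with detection reagent at ambient temperature.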
CtBP-E1A inh: CtBP/E1A binding inhibition; AlphaScreen GST-E1A/His-CtBP binding, 1536-well; active compounds read low; control for the full effect not named in the record; 340,000 tested, 0.49% active; activity change, % (no concentration beside the values); in the data active means activity change below about -65%; inconclusive means about -30% to -65%; inactive means above about -30%; also: % is scaled to controls: 0 for no effect and ±100 for the full control effect
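Steps: dispense buffer (Tris pH 8.0, NaCl 300 mM, TCEP 1 mM, BSA, Tween 20); add 5X protein mix (GST-E1A, His-CtBP, 125 nM each); pin 23 nL compound; 2 h at 37 °C, dark; add 5X beads (50 ug/mL); 1 h; read.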
PINK1 expr mod: modulators of PINK1 expression | PINK1 immunofluorescence, high-content cytometry, 24 h | Potency, µM (doses to about 76.6 µM), for the others: top-dose activation (PINK1 increase), actives largely listed as activators | 410,000 tested, 0.2% active | AID 624263; active = well fitted activation curve with a large enough effect; inconclusive = small, poorly fitted or top-dose-only effect; inactive = flat fitted curve, though single readings scatter; cell line not stated here;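 also: potency is read from the fitted curve at half-maximal effect; % of control where 0% means no effect; nearly all actives have a fitted effect of over 65% in size; a mitochondrial uncoupler was the plate control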
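Compound titrations (5 concentrations, 24 h) on a stable cell line; DMSO and CCCP controls. Endpoint: fixed-cell PINK1 immunofluorescence with mitochondrial, cell and nuclear markers, scanned by microplate cytometer.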
The depositor's hits bear a star; ? = inconclusive; · = no result given; & = joins results of further samples; [ ] = remark or other dose.

Under each structure: TRPML1 agonist	D2 ag	Six1-Eya2 inh	D2 potentiator	CtBP-E1A inh	PINK1 expr mod
O=C(CSc1cccc2cccnc12)N/N=C/c1cccc(O)c1
→ 3.5	-2.2	-20	1	·	-1.2%
CCCCNC(=O)c1ccc2nc(CC)c(N(C)Cc3ccc(OC)cc3)n2c1
→ -1.2	2.4	-3	-14	-10	1.9%
COc1ccc(CCNc2nc3ccccc3n3nnnc23)cc1OC
→ 1.0	4.2	-6	5	-1	-0.3%
Cc1ccccc1-c1cnc(C(O)c2ccc(F)c(F)c2)[nH]1 (configuration not stated)
→ -0.5	-7.5	-8	-10	-5	1.5%
CC1Cc2cc(/C(O)=C3\C(=O)C(=O)N(Cc4cccnc4)C3c3ccccc3F)ccc2O1 (configuration not stated)
→ 0.5	-0.1	21	-7	5	-1.1%
CC(=O)c1c(C)[nH]c(C(=O)OCC(=O)NCc2ccc3c(c2)OCO3)c1C
→ -0.1	3.2	-2	1	2	-0.4%
O=C(CCn1c(=O)[nH]c2ccsc2c1=O)N(CCc1ccccc1)Cc1ccccc1
→ 1.9	-3.1	-6	-6	-1	9.0%
CN(C(=O)c1ccc2nccnc2c1)C1CCCCC1
→ -0.3	-4.2	1	-16	·	0.0%
CCN(CC)C(=O)C1CCCN(Cc2ccc3ccccc3c2)C1 (configuration not stated)
→ -0.6	6.3	5	-18	3	0.1%
COc1ccccc1N1CCN(Cc2nc(-c3ccc(F)cc3)oc2C)CC1
→ 0.2	-3.7	-2	-14	·	-0.3%
CC(C)CN(C)C(=O)CCc1nnc(Cc2ccc(-c3ccccc3)cc2)o1
→ -0.5	-2.4	2	-4	·	-1.4%
Cc1ccc(O)c(-c2[nH]ncc2C(=O)c2ccc(Cl)cc2)c1
→ 2.2	-3.7	-6	-4	-21	?
CCCCNS(=O)(=O)c1ccc2nc(-c3cccnc3)cc(C(=O)NCCCOC)c2c1
→ -1.2	0.1	-11	2	0	7.9%
O=C(OCC1COC(c2ccccc2)(c2ccccc2)O1)c1ccccc1 (configuration not stated)
→ 2.6	-0.4	49	-14	6	-0.4%
CC1CN(C(=O)C2CC2)C(C)CN1C(=O)C1CC1 (configuration not stated)
→ -0.2	3.9	4	4	11	1.3%
O=C1CC(c2ccccc2)CC(O)=C1C=NCc1ccc(Cl)cc1 (configuration not stated)
→ 0.9	2.5	2	-9	-3	7.3%[38.3 µM]
Nc1ccc(N2CCN(C(=O)c3ccco3)CC2)cc1
→ 1.5&-0.8	2.6	-12&-12	-1	-7	3.0%[38.3 µM]
CN(C)C(=O)c1ccc(NC(=O)c2cncc(Br)c2)cc1
→ 0.2	-1.2	5	0	-1	-1.2%
CCN(CC)C(NC(=O)Cc1ccccc1)C(Cl)(Cl)Cl (configuration not stated)
→ -0.3	-0.1	2	-4	-2	-1.2%
O=C(NCC(=O)N1CCN(c2ccccc2O)CC1)c1ccccc1
→ 1.2	-1.3	1	2	4	-0.5%
Nc1ccc(C(=O)OCC(=O)Nc2ccc3c(c2)OCO3)cc1[N+](=O)[O-]
→ -0.2	0.6	5	-8	13	0.8%
CCCCN(C(=O)COC(=O)c1ccc(C)s1)c1c(N)n(CCC)c(=O)[nH]c1=O
→ 0.5	-3.9	25	-13	0	-0.6%
O=c1cc(-c2ccc(O)cc2)oc2ccc3ccccc3c12
→ 1.4	-0.1	-6	-10	-6	3.8%
Cc1ccccc1-c1nc(CN2CCC(C(=O)N3CCN(c4ccccn4)CC3)CC2)c(C)o1
→ 0.4	-3.0	-5	-10	-7	4.5%
CN(C)S(=O)(=O)c1ccc(C(=O)Nc2cccc(C(=O)N3CCOCC3)c2)cc1
→ -0.2	-0.5	1	-16	5	-0.2%
Cc1cc(=O)[nH]c(SCC(=O)Nc2ccc(Br)cn2)n1
→ 0.4	3.1	1	-4	-1	-2.4%[38.3 µM]
COC(=O)c1c(NC(=O)c2ccc(S(=O)(=O)N3CCOCC3)cc2)sc2c1CCN(C)C2
→ -0.2	-2.1	-10	-23	-4	7.7%
O=C(O)CCN1C(=O)C2C3C=CC(C3)C2C1=O (configuration not stated)
→ 0.5	-2.2	9	-19	2	-0.9%
O=C1CC(c2ccc(F)cc2)Cc2nc(N3CCOCC3)ncc21 (configuration not stated)
→ 1.0	-1.5	-14	-10	-1	-1.8%
CCC1(c2ccc(F)cc2)NC(=O)N(CC(=O)Nc2ccccc2Cl)C1=O (configuration not stated)
→ 12	5.1	1	-5	4	1.6%
Cc1cc(C)n(-c2ccc(C(=O)Nc3nnc(C4CC4)s3)cc2)n1
→ 1.4	0.3	7	-11	7	·
Cc1cc2cc(C)c(NCCNC(=O)c3cccs3)nc2cc1C
→ 1.9	-0.3	-21	-8	-11	3.7%
COc1ccc(SN=C2C(C)=CC(=O)C=C2C)cc1
→ 7.8	-0.8	-16	3	-12	13%
COc1cc(S(=O)(=O)Nc2cc(C)cc(C)c2)ccc1F
→ 4.6	2.6	7	10	5	12%
O=C(Cc1c[nH]c2ccccc12)NCC(=O)Nc1ccc(F)c(F)c1F
→ -0.5	7.8	2	-2	4	1.0%
Cc1ccc(/C=C/C(=O)OCC(=O)Nc2cccnc2Cl)o1
→ 1.3	5.7	0	2	0	0.0%
O=C(CCC1COc2ccccc2O1)N1CCCC1 (configuration not stated)
→ 0.1	0.6	10	-1	-1	0.8%
O=C(Nc1ccccc1Cc1ccccc1)c1ccncc1
→ 2.0	-7.0	0	-16	-3	-0.8%
O=C(CCS(=O)(=O)c1cc(Br)cc2c1N(C(=O)C1CC1)CC2)N1CCN(c2ccccn2)CC1
→ -0.3	-0.1	1	-4	6	7.3%
CC(NC(=O)c1ccc(Br)o1)C1CCCO1 (configuration not stated)
→ 0.0	4.1	3	-4	-1	0.2%
O=C(NC1CCCC1)C1CCN(C(=O)Nc2cccc(Cl)c2)CC1
→ 0.0	1.5	-1	-2	-17	5.1%
NS(=O)(=O)c1cnccc1Oc1cccc(Cl)c1
→ 0.0	-3.4	-2	-7	-1	-0.8%
O=C(O)C1C2OC3C(OC(=O)C31)C2Br (configuration not stated)
→ -0.2	-1.8	6	-2	7	-1.0%
CN(CC(=O)Nc1ccccc1Cl)C(=O)C1CSC2(C)CCC(=O)N12 (configuration not stated)
→ 0.4	-0.8	0	-2	2	1.3%
Cn1nnc2cc(C(=O)N3CCN(c4ccccc4)CC3)ccc21
→ -0.2	-1.6	20	-5	24	-1.3%
C#Cc1ccc([C@H]2C=C(C(=O)Nc3ccccc3)O[C@@H](OCc3ccc(CO)cc3)C2)cc1
→ -0.7	-3.3	-4	-7	7	1.7%
COCCNC(=O)c1ccccc1N(Cc1ccccc1)S(=O)(=O)c1ccc(C)cc1
→ 0.2	-1.2	-2	-4	6	2.6%
CCc1ccccc1NC(=O)Nc1ccc2c(c1)OCO2
→ 2.6	-0.5	6	-5	1	-1.2%
Cc1ccc(-n2nc3ccc(NC(=O)/C=C/c4ccco4)cc3n2)cc1
→ -0.1	0.0	-9	-10	5	?
O=C(Cn1cncn1)NCc1cc(F)ccc1F
→ -0.3	3.8	-6	-6	-18	0.6%
Cn1c(=O)c2cc(NC(=O)NCc3ccccc3)ccc2n1C/C=C/c1ccccc1
→ -0.2	11	-4	5	0	10%
O=C(Nc1ccc(/C=C/c2nc3ccccc3o2)cc1)c1c(F)cccc1F
→ 0.4	0.6	4	?	2	8.1%
Cc1cccc2cc3c(NC(=O)CC(C)C)nn(C)c3nc12
→ -0.1	-0.8	10	-8	2	1.6%
COC(=O)C1OC1c1cc([N+](=O)[O-])ccc1OC (configuration not stated)
→ 0.4	-0.2	0	-1	-2	-3.7%
Cc1ccc(C2/C(=C(/O)c3ccc(Br)cc3)C(=O)C(=O)N2Cc2ccco2)o1 (configuration not stated)
→ 0.4	-0.5	-3	5	13	-1.6%
O=C(Cc1ccc([N+](=O)[O-])cc1)N1CCN(c2ccc([N+](=O)[O-])cc2)CC1
→ -1.5	6.4	4	2	·	1.6%
CCc1ccc(C(=O)OCC(=O)N(CC)c2c(N)n(Cc3ccccc3)c(=O)[nH]c2=O)cc1
→ 0.3	0.8	6	0	4	0.4%
O=C(c1ccccc1)c1cccc(NC(=O)C2CC2)c1
→ -0.4	-4.0	-2	-6	0	-0.1%
Cc1ccc(C(=O)COC(=O)c2cc(C)no2)c(C)c1
→ -1.2	-0.2	1	-2	5	1.4%
CC(=O)NC(=S)Nc1cccc2ccc(C)nc12
→ -0.8	-5.4	1	-8	-3	-0.6%

The list continues.
Under each structure: TRPML1 agonist	D2 ag	Six1-Eya2 inh	D2 potentiator	CtBP-E1A inh	PINK1 expr mod
CCN(CC)C(=O)Cn1cnc2sc(C(=O)N3CCN(c4ccc(OC)cc4)CC3)c(C)c2c1=O
→ 3.8	-0.9	-1	-9	-12	1.0%[38.3 µM]
O=C(NC(=S)Nc1ccc(CN2CCCCC2)cc1)c1cc2ccccc2o1
→ 0.4	-4.9	-1	-9	·	0.4%
CC(=O)c1cccc(NC(=O)Cc2ccc3c(c2)CCCC3)c1
→ 3.2	-0.8	2	-7	8	-1.6%[38.3 µM]
CCCc1nn(C)c2c1C(c1ccncc1)C(C#N)=C(N)O2 (configuration not stated)
→ -0.6	0.8	-9	-8	0	3.7%
O=C(NCCC1=CCCCC1)C1CC(=O)N(Cc2ccccc2)C1 (configuration not stated)
→ 0.3	-3.2	4	-8	10	0.0%
O=C(CSc1ncn[nH]1)Nc1ncc(C(F)(F)F)cc1Cl
→ -0.4	-0.1	6	0	0	2.1%
CCN(CC#CCC1(O)c2ccccc2-c2ccccc21)CCO
→ 0.7	-1.1	9	-2	3	·
O=C(/C=C/c1ccco1)Nc1scc(-c2ccccc2)c1C(=O)O
→ 1.4	-0.9	-1	0	-1	0.8%
CC(=C\c1ccco1)/C=C1/SC(=S)N(CC(=O)O)C1=O
→ 0.0	-3.3	-10	-1	-2	-0.9%
CC1=C(C(=O)N(C(C)C)C(C)C)CC(CC(=O)NCCc2ccccn2)C(=O)N1Cc1ccc(F)cc1 (configuration not stated)
→ 1.0	-4.0	17	-6	-12	-0.6%
COCCn1c(=NC(=O)CN2C(=O)CCC2=O)sc2cc(S(N)(=O)=O)ccc21
→ 0.2	-6.0	4	-9	10	0.0%
COC(=O)c1cc(C)sc1NC(=O)c1ccco1
→ -0.4	-2.9	-7	-8	-12	2.9%
CCn1c(SCC(=O)Nc2nccs2)nnc1-c1ccc(S(=O)(=O)N2CCCCC2)cc1
→ -1.6	-2.3	3	22	2	1.7%
